Bioassay records as filed in PubChem BioAssay.
Menin-MLL FL inh: displaces fluorescein MLL peptide from human menin; 290,000 tested, under 10 active; Fluorescence polarization, fluorescein-MLL peptide displacement from menin; FP activity change, % at 61.4 µM; AID 1766; inconclusive = falling polarisation curve, or a change in total fluorescence; inactive = total fluorescence flat and polarisation flat or rising; no compound was filed as active; the % refers to the polarisation; negative = inhibition;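 also: % of control where 0% means no effect; inhibitors lower the polarisation; unlabelled MLL peptide was the positive control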
ClpP mod: qHTS Assay for Activators of ClpP; purified B. subtilis ClpP, FRET peptide cleavage, 20 min; Potency, µM (series often up to 57.5 µM), for the others: at the highest dose activity change, negative = active; 1.9% of 340,000 active; active = well fitted falling curve with a large enough effect; inconclusive = small, poorly fitted or top-dose-only effect; inactive = no such curve, though single readings can be large or run the other way; also: potency is read from the fitted curve at half-maximal effect; the source files actives as falling curves though it sought activators and does not explain the sign; nearly all actives have a fitted effect of over 65% in size; many hits overshoot -100%
Target sequence (P80244 whole entry, looked up): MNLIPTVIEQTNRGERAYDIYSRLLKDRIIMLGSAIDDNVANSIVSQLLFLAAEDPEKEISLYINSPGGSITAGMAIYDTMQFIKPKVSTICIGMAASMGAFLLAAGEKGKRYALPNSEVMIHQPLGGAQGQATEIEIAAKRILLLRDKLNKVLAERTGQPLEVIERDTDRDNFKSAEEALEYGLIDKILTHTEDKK
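Buffer: 100 mM Tris/HCl pH8, 100 mM KCl, 0.05% low protease BSA, 2.5% glycerol, 0.01% Tween-20. ClpP 10 microg/mL final; 20 min RT; delta FRET normalized to ADEP and DMSO controls.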
gsp antag: antagonizes gsp, the McCune-Albright syndrome mutation | gsp-mutant cells, cAMP HTRF, 30 min; control for the full effect not named in the record | Potency, µM (top dose mostly 76.9 µM), for inactives: at the highest dose activity change, negative = inhibition, actives largely listed as inhibitors | 0.4% of 340,000 active | AID 624288; active = falling curve of any shape with a large fitted effect; inconclusive = falling curve, mostly with a smaller effect; inactive = flat or rising curve; cell line not stated here;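 also: intracellular cAMP measured with PDE inhibitor Ro 20-1724 present during compound exposure; potency is read from the fitted curve at half-maximal effect; % is scaled to controls: 0 for no effect and ±100 for the full control effect; nearly all actives have a fitted effect of over 65% in size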
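Measurement of cellular cAMP by homogeneous time-resolved fluorescence following a 30 min compound exposure at 37C. The PDE inhibitor […] was present throughout; the assay buffer was DPBS with 0.05% BSA and 0.005% Tween 20.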
TRPML1 agonist: activates the human TRPML1 channel; TRPML1-expressing cells, Ca2+ dye fluorescence, FDSS; host cell line not named in the record; reference of the full effect not given here; activation, % (test concentration not listed); 0.12% of 410,000 active; AID 624414; in the data active = activation above about 50%; inconclusive = about 30% to 50%; inactive = below about 30%; also: 0% is about no effect; the text of the record puts the active cut at 80%
Target sequence (Q9GZU1 whole entry, looked up): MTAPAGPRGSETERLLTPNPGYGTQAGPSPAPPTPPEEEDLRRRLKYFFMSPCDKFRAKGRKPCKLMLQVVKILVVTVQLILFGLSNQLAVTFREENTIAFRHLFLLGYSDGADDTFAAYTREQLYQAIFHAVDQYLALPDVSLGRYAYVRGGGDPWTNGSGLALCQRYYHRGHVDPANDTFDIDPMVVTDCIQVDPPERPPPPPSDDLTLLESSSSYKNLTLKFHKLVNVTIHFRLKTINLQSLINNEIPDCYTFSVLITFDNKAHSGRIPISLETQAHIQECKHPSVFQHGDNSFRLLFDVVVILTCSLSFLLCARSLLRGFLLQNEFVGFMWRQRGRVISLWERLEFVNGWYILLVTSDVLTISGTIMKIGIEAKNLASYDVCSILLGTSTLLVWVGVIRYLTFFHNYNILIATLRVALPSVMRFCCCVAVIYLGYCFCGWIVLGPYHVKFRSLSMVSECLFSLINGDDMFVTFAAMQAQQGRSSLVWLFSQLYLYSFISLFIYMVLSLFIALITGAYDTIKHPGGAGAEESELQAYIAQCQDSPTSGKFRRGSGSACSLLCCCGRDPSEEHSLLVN
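Cells: TRPML1-DL, 1X Tet inducer, ~16 h at 37 degrees C/5% CO2. Dye: ABD Ca8 no-wash + quencher, 45-90 min RT. Read: 10 s baseline, compound add, 110 s agonist phase; 54-4 EC80 (4uM final), 110 s antagonist phase.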
TRPML1 blocker: inhibitors of human TRPML1 channel; activity change, negative = inhibition, % (test concentration not listed); TRPML1-inducible cells, Ca2+ dye fluorescence, FDSS; stronger effect = lower value; inhibition of EC80 agonist-evoked calcium signal; Q9GZU1; 0.02% of 390,000 active; in the data active means activity change below about -50%; inconclusive means about -30% to -50%; inactive means above about -30%;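 also: stimulus is agonist 54-4 at its EC80 concentration; % is scaled to controls: 0 for no effect and ±100 for the full control effect; compound concentration not given in the record; the text of the record puts the active cut at -80%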
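Tet-induced TRPML1-DL cells loaded with Ca8 no-wash calcium dye were read kinetically on FDSS. Compound addition was followed by EC80 agonist 54-4 (4 uM final); inhibition was read over 110 s.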
gsp agonist: agonists of gsp mutant (McCune-Albright syndrome); gsp mutant cells, cAMP HTRF, 30 min; control for the full effect not named in the record; 0.13% of 340,000 active; Potency, µM (doses to about 76.9 µM), without a hit: at the top dose activation (cAMP increase), hits mostly activators; active = well fitted activation curve with a large enough effect; inconclusive = small, poorly fitted or top-dose-only effect, or another doubt; inactive = no such curve, though single readings can be large or run the other way; cell line not stated here;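 also: phosphodiesterase inhibitor Ro 20-1724 added with compounds to block cAMP breakdown; potency is read from the fitted curve at half-maximal effect; nearly all actives have a fitted effect of over 60% in size; about a fifth of the inactives were tested at one dose only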
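Cells stably selected in G418 were plated at 2000/well, grown 16-24 hr, then given compounds in DMSO with the PDE inhibitor […] (300 uM solution added) for 30 min at 37C; cAMP was read by HTRF.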
Numbers without * were called inactive; ? = inconclusive; / = not tested or not shown; & = joins results of further samples; [ ] = remark or other dose. Hits appear at their usual frequency, and some 2.1% of all compounds hit somewhere here.

SMILES	Menin-MLL FL inh	ClpP mod	gsp antag	TRPML1 agonist	TRPML1 blocker	gsp agonist
COC(=O)c1ccccc1NC(=O)NCCc1ccc(OC)c(OC)c1	0.8	/	0.8%	0.2	19.1	-1.0%[15.4 µM]
O=C(CSc1ncn[nH]1)Nc1nc2c(F)c(F)c(F)cc2s1	/	0.0%	/	-0.5	0.9	-3.9%
CCOCCCn1cnc2c3cc(F)ccc3n(C)c2c1=O	-1.5	4.0%	-7.4%	0.6	-11.1	31.4%
Cc1ncc(CSc2nccc(=O)[nH]2)c(CO)c1O	-0.7	4.6%	6.4%	0.1	32.4	?
CCOc1ccccc1CNCC1CCCO1 (stereo unspecified)	0.9	-1.7%	7.2%	-0.3	-9.4	2.4%[15.4 µM]
Cc1ccc(C)c(Nc2nc3nonc3nc2N2CCOCC2)c1	2.3	1.2%	3.4%	-0.7	2.8	-48.2%[inhibitor]
O=C(NC(=S)NCc1ccco1)c1ccccc1[N+](=O)[O-]	/	-2.9%	1.9%	0.8	15.7	21.0%
Cc1ccc2nc(Cl)c(C3CC(c4cccs4)=NN3S(C)(=O)=O)cc2c1 (stereo unspecified)	12.8	-3.4%	-22.6%	0.4	-0.3	12.7%
CCc1ccc(C(=O)Cn2ncc(Cl)c(Cl)c2=O)cc1	0.2	1.0%	-1.2%	-0.2	-4.5	7.3%
CCOc1cc(C(c2c(C)[nH][nH]c2=O)c2c(C)[nH][nH]c2=O)cc([N+](=O)[O-])c1O	-2.0	/	-28.4%	0.9	-10.1	-3.4%
Cc1ccc(-n2nc(C)c3c(C)cc(=O)n(CC(=O)NC(C)c4ccccc4)c32)cc1 (stereo unspecified)	/	-1.4%	/	-0.1	-2.1	/
Cc1ccc(Cn2c(C(C)Nc3nc(-c4ccc(Cl)c([N+](=O)[O-])c4)cs3)nc3cc(C(F)(F)F)ccc32)cc1 (stereo unspecified)	/	-2.3%	8.9%	0.1	-1.5	/
CC(C)[C@H]1CN(C)CCN1Cc1cn(C)nc1-c1cccc(Cl)c1	2.3	-0.1%	13.2%	0.1	23.5	-9.1%
O=C(Nc1ccc(Br)c(C(F)(F)F)c1)c1ccc(C(F)(F)F)cc1	2.7	/	-19.2%	3.2	46.0	19.4%[15.4 µM]
Cc1ccc([C@@H]2[C@@H]3C(=O)N(C)C(=O)[C@@H]3[C@]3(Cc4ccccc4)C(=O)N(Cc4ccccn4)CC(=O)N23)o1	2.5	2.0%	1.4%	-0.2	20.2	/
FC(F)(F)c1cc(N2CCOCC2)nc(-c2ccccc2)n1	-2.4	-0.4%	13.4%	0.6	26.5	0.0%
NS(=O)(=O)OCCCCCc1ccccc1	-6.7	0.5%	5.1%	0.1	-0.5	5.2%
C[C@@H]1CCCCO[C@H](CN(C)Cc2ccc(Cl)c(Cl)c2)[C@H](C)CN([C@@H](C)CO)C(=O)c2cc(NC(=O)Nc3ccc(F)cc3)ccc2O1	/	-19.2%	/	0.2	2.6	-47.5%
Cc1ccc(S(=O)(=O)N2CCOCC2)cc1C(=O)OCC(=O)Nc1ccc(Cl)cn1	/	-1.2%	/	-0.8	12.9	-36.8%[inhibitor]
O=C(O)C1CCCCC1C(=O)NCCCN1CCOCC1 (stereo unspecified)	1.6	-2.6%	1.2%	0.7	12.5	5.0%
O=c1oc2ccccc2c2c1C(O)CO2 (stereo unspecified)	4.1	-0.4%	6.9%	/	/	0.1%
Cc1ccc(NC(=O)CCCn2nc(C)c3c(C)n(-c4ccccc4)nc3c2=O)c(Cl)c1	1.9	-3.8%&1.0%	-3.3%	-0.6&0.5	26.9&-2.8	-7.3%
O=C(/C=C/c1ccccc1)Nc1cc(S(=O)(=O)N2CCOCC2)ccc1N1CCCC1	1.1	-3.6%	3.2%	-0.7	7.4	14.0%
CCOC(=O)c1c(C)nc2sc3c(=O)n(-c4ccc(C(C)=O)cc4)cnc3c2c1-c1ccc(OC)cc1	-2.3	-21.4%	0.5%	0.9	-0.9	5.4%
N/C(=N\OC(=O)c1cccc(F)c1)c1ccccc1	5.3	-2.3%	5.3%	-0.3	41.2	-26.7%
Cn1cc([N+](=O)[O-])c(C(=O)Nc2nccs2)n1	-1.0	-1.0%	-6.8%	0.2	4.9	-14.2%
COc1cccc(N=Nc2c(N)[nH]n3c(=O)cc(-c4ccccc4)nc23)c1	6.9	15.5%	?	3.7	23.9	2.7%
COc1ccc(NS(=O)(=O)c2ccc3oc(SC(C)C(N)=O)nc3c2)cc1 (stereo unspecified)	/	31.6µM*	-6.0%	0.7	-5.3	-73.5%[inhibitor]
COC(=O)c1ccn(-c2nc(-c3ccco3)cc(C(F)(F)F)n2)n1	2.0	?	-16.0%	4.5	-15.9	3.3%
CC(C)(C)C(=O)Nc1nnc(SCC(=O)Nc2ccc3c(c2)OCO3)s1	2.5	-19.0%	9.8%	0.0	-4.6	-11.9%[15.4 µM]
COc1ccc(-c2nc(SCC(=O)NC3CCCCC3)n[nH]2)cc1	/	0.4%	-3.7%	-0.6	0.2	-38.8%[inhibitor]
CCOC(=O)c1c(-c2ccc(OC)cc2)nc2nonc2c1N	-0.8	-1.3%	-0.5%	0.1	4.2	-4.9%
CCCCC(=O)Nc1nc(C)c(C(C)=O)s1	0.2	0.0%	6.3%	-1.2	-5.6	?
CN(C)CCCN(C(=O)c1cccs1)c1nc(-c2ccccc2)cs1	0.2	-0.6%	-1.6%	0.2	6.8	21.8%
CCOC(=O)C1=CCN(S(=O)(=O)c2ccc(Br)cc2)C1c1ccc(C)cc1 (stereo unspecified)	/	-2.1%	/	3.4	0.3	/
Cc1[nH]nc(-c2ccc(OCc3cnn(-c4ccccc4)c3)c(C)c2O)c1Oc1ccccc1	/	0.8%	5.5%	-0.3	11.2	5.2%
Cc1cc(C(=O)NCC(=O)OCC(=O)Nc2ccc(OC(F)F)cc2)ccc1[N+](=O)[O-]	3.0	-1.7%	-3.0%	2.8	9.0	-0.2%
CCCCC1CCC(C(=O)N2CC(=O)Nc3ccc(C)cc3C2c2ccc(F)cc2)CC1 (stereo unspecified)	/	-25.9%	/	-0.5	-2.7	/
Cc1c(/C(O)=C2\C(=O)C(=O)N(CCN(C)C)C2c2cccnc2)cnn1-c1ccccc1 (stereo unspecified)	-0.6	1.0%	5.3%	0.3	4.3	9.3%
Cc1ccc(NC(=O)COn2nnc3ccc(S(=O)(=O)N(C)C)cc32)cc1F	-0.5	-15.8%	-9.9%	1.5	29.5	4.0%
CCCc1n(CC(O)COCc2ccccc2)c2ccccc2[n+]1C (stereo unspecified)	0.6	/	4.4%	0.4	5.1	-1.8%
CC1(C)N=C(SCC(=O)Nc2ccc(Cl)cc2Cl)C(c2ccccc2)=N1	0.7	0.6%	-19.5%	0.5	12.3	-47.9%[inhibitor]
O=C(CSc1nc(-c2ccccc2)cc(C(F)(F)F)n1)NCc1ccco1	-2.4	1.4%	-8.9%	1.7	-2.7	16.8%
C#CCSc1nc2sc3c(c2c(=O)n1C)CCC3	-1.3	-3.3%	-1.5%	/	/	19.6%
CC(C)c1ccc2[nH]c3nc(SCC(=O)NC4CC4)nnc3c2c1	-3.6	/	-5.2%	1.6	-9.5	-5.5%
Cc1cc(Nc2ccccc2)nc2cc(O)ccc12	13.4	?	5.1%	-0.3	31.3	-2.7%
CCC(=O)N(Cc1cc2ccccc2[nH]c1=O)c1ccccc1OC	-2.6	-10.9%	12.6%	0.6	25.7	0.9%[15.4 µM]
Cc1ccccc1NC(=O)CC1SC(=O)N(c2ccccc2)C1=O (stereo unspecified)	6.4	-1.8%	6.2%	-0.5	-5.3	-37.9%[inhibitor]
c1ccc(-c2nnc(N3CCN(c4ccccc4)CC3)nc2-c2ccccc2)cc1	2.4	/	-4.0%	0.2	-15.5	13.8%[15.4 µM]
CC1CCN(CCn2c(=S)[nH]c3ccccc3c2=O)CC1	-1.0	/	5.2%	0.0	-11.7	?
The results go on.
SMILES	Menin-MLL FL inh	ClpP mod	gsp antag	TRPML1 agonist	TRPML1 blocker	gsp agonist
O=C(NC1=NCCS1)c1ccccc1Cl	0.7	/	6.3%	-0.7	2.0	0.6%
CC12CCC(=O)N1C(C(=O)NCCN1C(=O)S/C(=C\c3ccccc3Cl)C1=O)CS2 (stereo unspecified)	/	-0.3%	-13.0%	-1.2	-18.2	0.5%
Cc1nnc(SCC(=O)N(C)C2CCCCC2)s1	0.5	-0.9%	-4.9%	0.2	-6.8	?
Cc1c(C(=O)Nc2cc(S(=O)(=O)N3CCOCC3)ccc2N2CCN(C)CC2)oc2ccccc12	0.1	/	-0.3%	-0.5	-10.6	21.4%[15.4 µM]
N#Cc1c(-c2ccccc2)cc(C2CC2)nc1SCC(=O)O	1.4	-3.5%	-32.0%	-0.4	3.8	-2.5%
O=S1(=O)C[C@@H](O)[C@@H](Nc2ccc(Cl)cc2)C1	3.7	1.5%	4.1%	-1.0	-2.6	3.7%
CN(C)CCOC(C1CCCCC1)C1CCCCC1	0.1	0.6%	4.6%	0.5	14.1	-1.2%
Cc1c(N=C2SCC(=O)N2/N=C/c2ccccc2)c(=O)n(-c2ccccc2)n1C	1.4	1.4%	-4.3%	0.3	-1.2	-22.1%[15.4 µM]
COc1cccc(CSc2nc(-c3ccccc3F)nc3c2Cc2c(CO)cnc(C)c2O3)c1	/	1.1%	/	0.4	10.3	/
Cc1ccc2nc(N3CCN(c4ccccc4F)CC3)c3nnnn3c2c1	/	-5.6%	/	0.7	-2.3	/
Cc1ccc(NC(=O)C2CCCN(c3ncnc4c3nc3n4CCCCC3)C2)cc1Cl (stereo unspecified)	/	-0.3%	?	-0.3	3.4	-1.5%
CCOC(=O)C1CCCN(C(=O)c2cc3cc4ccc(OC)cc4nc3o2)C1 (stereo unspecified)	/	4.0%	-10.6%	-1.8	-11.7	-1.6%
COC(=O)c1cc(OC)c(OC)cc1NC(=O)Nc1ccccc1OC	5.2	-1.5%	1.8%	0.4	-4.6	-35.8%[inhibitor]
COc1ccc(C2=NNC(=Nc3cc(S(=O)(=O)N(C)C)ccc3C)SC2)c(OC)c1	5.5	-0.5%	0.6%	-0.5	29.0	1.3%
CCCc1ccc(OC(C)c2nc(-c3ccc(-n4cccc4)cc3)no2)cc1 (stereo unspecified)	/	?	/	0.6	-21.8	/
Cc1c(Cl)cccc1NC(=O)C1CCCN(c2nnc(-n3c(C)ccc3C)s2)C1 (stereo unspecified)	/	5.6%	/	0.1	-12.0	/
COc1ccc(/C=N/NC(=O)CCSc2nc3ccccc3s2)cc1	-0.3	-0.3%	-9.9%	2.5	8.9	7.2%
CCOC(=O)c1oc2ccccc2c1COC(=O)CNC(=O)c1ccco1	/	-10.5%	4.3%	-0.4	-3.1	-44.6%[inhibitor]
Cc1cc(C)cc(N(CCC(=O)O)S(=O)(=O)c2ccc(Cl)cc2)c1	14.3	0.7%	-25.2%	-0.3	1.0	-4.6%
O=CN1CCCN(C(=O)CC2C(=O)NCCN2Cc2cccc(Oc3ccccc3)c2)CC1 (stereo unspecified)	/	-8.9%	-8.7%	0.3	-11.6	0.1%
